Biofilm kill mix: mixtures killing C. albicans biofilm; hit rate 0.02% among 120,000; C. albicans biofilm persisters + clotrimazole, fluorescence viability; primary screen in compound mixtures of four per well; inhibition, % at 7.6 µM;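 active = inhibition above 30.3% in the primary screen of four-compound pools, then above 30% when the compound was retested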;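 note: compounds exposed to preformed 24 h biofilms for 48 h; the number belongs to the whole pool; some results filed as inactive read as strong as hits; inactives centre near 12; 0% = biofilm with clotrimazole alone and 100% = kill control; retested singly at about 60 µM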
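Test system: C. albicans biofilms. Buffer or medium: RPMI/MOPS medium, pH 7.0. Timing: 48 h compound exposure at 37 °C. Technique: Alamar Blue fluorescence. Evaluation: percent inhibition of biofilm viability.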
Starred values were filed as active, the others as inactive; & = joins results of further samples.

SMILES | Biofilm kill mix
CCOc1ccc(Br)cc1S(=O)(=O)Nc1ccc(C(=O)OCC(=O)N(C)c2ccccc2)cc1 | 9.5
COc1ccc(OCCOCCOc2ccc(C)cc2[N+](=O)[O-])cc1 | 9.9
O=C(Oc1cccc(N2C(=O)C3C4c5ccccc5C(c5ccccc54)C3C2=O)c1)c1ccco1 (stereo not drawn) | 9.7
Cc1ccc(NC(=S)N2CCCC(CO)C2)c(C)c1 (stereo not drawn) | 3.6
O=C1CC(NC(=O)C(F)(F)F)=NN1c1ccccc1 | 14.3
CCc1ccc(NC(=O)CSc2nc3[nH]ncc3c(=O)[nH]2)cc1 | 13.2
O=C(CCn1c(=S)oc2ccccc21)NCCC1=CCCCC1 | 1.9
CCOC(=O)c1cnc(SC)nc1NCCOC | 6.5
CCCn1cc(S(=O)(=O)CC(=O)NC2CCCCC2)c2ccccc21 | 3.6
CCOc1cc(OCC)nc(S(C)(=O)=O)n1 | 2.6
Cc1ccc(-c2nnn3c2nc(Cl)c2ccccc23)cc1 | 11.4
COc1ccc(CNC(=O)COc2cc(=O)n(C)c3ccccc23)cc1 | 18.2
CCn1cc(C(=O)NNC(=O)c2ccc(Cl)cc2)c(=O)c2ccc(C)nc21 | -0.7
CCOc1ccc(/C=C2\SC(=O)N(CCNC(=O)C3COc4ccccc4O3)C2=O)cc1OC (stereo not drawn) | 16.6
O=C(COC(=O)Cc1cccc(C(F)(F)F)c1)Nc1ccccc1 | 11.5
Cc1[nH]oc(=O)c1N=Nc1ccccc1 | 7.5
O=C(O)c1ccc(-n2cccc2/C=C2/NC(=O)N(c3cccc(Cl)c3)C2=O)cc1 | 14.0
COc1ccc(N2CCN(c3ncccc3C#N)CC2)cc1 | 19.3
Cc1cc(C)c(NC(=O)C2CCCN2CCOC(=O)c2cccc([N+](=O)[O-])c2)c(C)c1 (stereo not drawn) | 12.0
COc1ccc(/C=C2/N=C(SC)NC2=O)cc1OC | 20.0
Cc1ccc(NC(=O)COc2cccnc2[N+](=O)[O-])cc1S(=O)(=O)N1CCOCC1 | 11.6
CCOc1ccc(N2C(=O)CC(SC(=NC)Nc3cccc(OC)c3)C2=O)cc1 (stereo not drawn) | 4.6
Nc1nnc(SCC(=O)Nc2ccccc2)s1 | -0.1
COc1ccc(S(=O)(=O)N2CCOCC2)cc1NC(=O)COc1cccnc1[N+](=O)[O-] | -6.7
CCc1ccc(-c2cn3nc(-c4ccccc4)cnc3n2)cc1 | 9.5
CCOC(=O)c1ccc(N2C(=O)c3n[nH]c(-c4ccco4)c3C2c2cccc([N+](=O)[O-])c2)cc1 (stereo not drawn) | 12.4
S=C(Nc1cc(Cl)ccc1Cl)Nn1cnnc1 | 18.8
O=C(Nc1ccccc1-c1nc2ccccc2[nH]1)c1sc2ccccc2c1Cl | 12.8
CCCCn1c(NS(=O)(=O)c2ccccc2)c(S(=O)(=O)c2ccc(C)cc2)c2nc3ccccc3nc21 | 8.5
O=C(NNC1=NCCC1)C1CC1 | 14.2
Nc1cc(C(=O)O)c(N)c2c1C(=O)c1ccccc1C2=O | 18.6
Cc1nc2c3cc(Cl)ccc3n(CCN3CCOCC3)c2s1 | 7.1
O=C(N/N=C/c1ccccn1)c1ccccc1 | 9.4
CC1(C)CC(=O)C(C(=O)Cc2ccccc2[N+](=O)[O-])C(=O)C1 | 11.7
Cc1cn2c(N)c(/C=C3\C=Nc4ccccc43)c(=O)nc2s1 | 8.6
COC(=O)c1ccc[n+](CC(=O)c2ccc(Br)cc2)c1 | 14.7

Of the compounds above, these have a COOH group:
SMILES | Biofilm kill mix
O=C(O)c1ccc(-n2cccc2/C=C2/NC(=O)N(c3cccc(Cl)c3)C2=O)cc1 | 14.0
Nc1cc(C(=O)O)c(N)c2c1C(=O)c1ccccc1C2=O | 18.6

(list continues)
SMILES | Biofilm kill mix
CC(C)=Cc1oc2ccc([N+](=O)[O-])cc2c1N1CC(C)OC(C)C1 (stereo not drawn) | 15.4
Cc1ccc(C(=O)NCCN2CCCC2)cc1 | 3.4
O=C(NCc1ccncc1)C(=O)Nc1nc2ccccc2s1 | 12.3
COC(=O)C1C2C=CC3(CN(CCc4ccccc4)C(=O)C13)O2 (stereo not drawn) | 8.2
O=C(COC(=O)C1=COCCO1)Nc1cc(S(=O)(=O)N2CCCCC2)ccc1Cl | 11.8
Cc1ccc(CNC(=O)C(=O)NCC2CCCO2)cc1 (stereo not drawn) | 10.2
O=C(c1ccc(F)cc1)n1c(NCc2ccccc2)n[nH]c1=S | 4.0
Brc1cccc(/C=N/Nc2nn[nH]n2)c1 | 8.5
Cc1ccc(-n2nnnc2SCc2nc3sc(C)c(C)c3c(=O)[nH]2)cc1 | 12.1
Cc1ccc(-n2c([C@@H]3C[C@H]3c3ccccc3)n[nH]c2=S)cc1 | 6.0
O=C(Nc1ccc(Cl)cc1)N1CCN(c2ncccn2)CC1 | 5.7
CCOc1ccc2nc3c(cc2c1)CN(CCOC)C(=NC)S3 | 5.8
Cn1c(NC(=O)C[n+]2cc(-c3ccc(F)cc3)n3c2CCC3)cc(=O)n(C)c1=O | 12.3
COC(=O)CCCC1=CC2=CC(=O)C(C)(OC(=O)c3cccs3)C(=O)C2=CN1CCCCO (stereo not drawn) | 15.4
O=c1c2cc(Cl)ccc2nc(-c2ccc(Cl)c(Cl)c2)n1O | 20.8
CCCNC(=O)OCc1cccnc1Sc1ccc(C)cc1 | 5.6
COc1nc(OCCNS(=O)(=O)c2ccc(C)cc2)nc(N(C)C)n1 | 12.9
Cc1ccc(C(=O)O)cc1-c1ccc(/C=C2\SC(=O)N(CC(=O)Nc3ccccc3)C2=O)o1 | -5.3
CC(C)N(C)C(=O)CCc1nnc(CCc2c[nH]c3ccccc23)o1 | 6.5
COc1ccc(C2CC(c3ccccc3)=NN2C(=O)CN2N=NC3C(=O)N(c4cccc(F)c4)C(=O)C32)cc1 (stereo not drawn) | 18.6
CCOc1ccc(NC(=O)CCC(=O)NNC(=O)COc2ccc(C)cc2)cc1 | 12.2
COc1ccc(C2(C(=O)Nc3ccccc3)CCOCC2)cc1 | 14.7
O=C(/C=C/c1ccco1)Nc1cccc(S(=O)(=O)N2CCOCC2)c1 | 4.6
Cc1cc(Cl)ccc1OCC(=O)NNC(=O)C1CCCO1 (stereo not drawn) | 13.4
COCCCNC(=O)c1cccc(NC(=O)c2ccccc2)c1 | 6.2
Oc1ccccc1N1CCN(c2ncnc3sc(-c4ccccc4)cc23)CC1 | 19.2
Cc1ccc(CN2CCN(Cc3nc(C(C)C)cs3)CC2CCO)cc1 (stereo not drawn) | 6.2
O=[N+]([O-])c1ccc(NC2CCCC2)cc1 | -9.6
Cc1cc(NC(=O)COC(=O)COc2ccc3c4c(c(=O)oc3c2)CCC4)no1 | 2.3
CC(C)(C)c1ccc(C(=S)N2CCN(c3ccccc3)CC2)cc1 | 21.7
NC(=O)C1CCN(CCS(=O)(=O)c2ccc(Cl)cc2)CC1 | 4.2
CCc1ccc(C(C(=O)NC(C)(C)CC)N(Cc2ccco2)C(=O)Cn2nnc3ccccc32)cc1 (stereo not drawn) | 13.3
CCC(=O)N1CCc2cc(Br)cc(S(=O)(=O)N(C)c3ccc(OC)cc3OC)c21 | 14.6
CC1=NN(C(=O)Cn2nc([N+](=O)[O-])c(Br)c2C)C(O)(C(F)(F)F)C1 (stereo not drawn) | 11.8
COc1cccc2c(=O)c3ccccc3oc12 | 16.4
CC(=O)c1c(N2CCN(C)CC2)nc(=S)n(-c2cc(C)ccc2C)c1C | 11.8
CCN(CC)C(=O)COc1ccc(/C(C)=N/Nc2ncc(Cl)cc2Cl)cc1 | 13.5
Cc1ccc(SCCOCCN2CCc3ccccc3C2)cc1 | 19.9
Cc1sc2nc(CC(=O)N3CCCC3)[nH]c(=O)c2c1C | 16.9
CCc1cccc2c(C(=O)CCl)c[nH]c12 | 23.7
COC(=O)C1=C(C)NC(C)=C([N+](=O)[O-])C1c1ccccc1C(F)(F)F (stereo not drawn) | 11.6
CN(C)NC(=O)C(NC(=O)c1ccccc1)C12CC3CC(CC(C3)C1)C2 (stereo not drawn) | 15.0
CN(C)S(=O)(=O)c1cccc(C(=O)OCC(=O)NCc2ccc3c(c2)OCO3)c1 | 10.6
COc1ccccc1CNC(=O)C/C(C)=N/NC(=O)Cc1ccc(OC)c(OC)c1 | 21.6
CN(C)C=NC(=O)c1cn(-c2ccc(F)cc2)c(=O)c2ccccc12 | 17.1
Cc1nn(-c2ccccc2)c(Cl)c1/C=N/O | 18.6
O=C(CCNS(=O)(=O)c1ccc(Cl)cc1)N1CCN(Cc2ccccc2)CC1 | 5.4
Cc1ccc(S(=O)(=O)N2CC3CCCC2C3)cc1 (stereo not drawn) | 16.1
O=C(/C=C/c1ccc(Cl)cc1)Nc1ccc(N2CCOCC2)cc1 | -6.5
CC(=O)c1ccc(Nc2nc(NCCO)nc(OC(C(F)(F)F)C(F)(F)F)n2)cc1 | 4.3
COc1ccc(NC(=O)Nc2ccc3c(c2)CCC3)cc1OC | 9.2
CCOc1ccc2nc(SCC(=O)NC3CCCc4ccccc43)sc2c1 (stereo not drawn) | 7.0
Cn1c(SCC(O)c2ccccc2)nnc1-c1ccc2ccccc2c1 (stereo not drawn) | 8.2
Cc1cccc(-c2noc(-c3ccoc3C)n2)c1 | 15.2
COc1ccccc1-c1ccc(/C=C2\C=CC(=O)O2)o1 | 17.9
COc1ccc(CN(C)C2c3ccccc3-c3ccccc32)cc1 | 10.7
OCCC1CN(Cc2ccc3c(c2)CCO3)CCN1C1CCCC1 (stereo not drawn) | 5.0
Cc1onc(C(=O)Nc2cccnc2Cl)c1[N+](=O)[O-] | 12.9
O=C(c1ccco1)N1CCN(c2ccc([N+](=O)[O-])cc2Cl)CC1 | 19.2
CCC(C)Nc1nc(N)c([N+](=O)[O-])c(NCCO)n1 (stereo not drawn) | 12.5

A different layout for some results above:
| Compound | Biofilm kill mix |
| --- | --- |
| COc1ccccc1-c1ccc(/C=C2\C=CC(=O)O2)o1 | 17.9 |
| O=C(c1ccco1)N1CCN(c2ccc([N+](=O)[O-])cc2Cl)CC1 | 19.2 |
| COc1ccc(NC(=O)Nc2ccc3c(c2)CCC3)cc1OC | 9.2 |
| CC(=O)c1ccc(Nc2nc(NCCO)nc(OC(C(F)(F)F)C(F)(F)F)n2)cc1 | 4.3 |

New compounds follow
SMILES | Biofilm kill mix
CCOC(=O)c1sc2ncn(/N=C/c3ccc(O)c(OC)c3)c(=O)c2c1C | 14.0
COC(=O)c1ccc(C(=O)OC)c(NC(=S)N2CCN(C)CC2)c1 | 1.4
CC(=O)Nc1cccc(OCC(=O)NCCC2=CCCCC2)c1 | 15.4
Cc1nc(C)c(NC(=O)OC(C)C)cc1NC(=O)OC(C)C | 1.9
O=C(Nc1nc2ccc([N+](=O)[O-])cc2s1)c1ccncc1 | 23.6
COc1cc2c(cc1OC)C(C)N(S(=O)(=O)c1cn(C)cn1)CC2 (stereo not drawn) | 15.5
O=S(=O)(N/N=C/c1cccc(OC2CSC2)c1)c1ccccc1 | 8.4
CCN(CC)C(=O)CC(c1ccc(OC)cc1)c1c(OC)cc(OC)c2ccc(=O)oc12 (stereo not drawn) | 19.9
COc1ccc(Cl)cc1C(=O)C1CCCN(Cc2cnc(N3CCOCC3)s2)C1 (stereo not drawn) | 22.1
Cc1oc(-c2cccs2)nc1CN1CC[C@@](O)(c2ccccc2)[C@H]2CCCC[C@@H]21 | 19.9
c1ccc(-c2nc3c(ccc4ccccc43)[nH]2)nc1 | 18.0
O=C(NCC(O)c1ccccc1)c1ccccc1 (stereo not drawn) | 9.8
O=C(COC(=O)[C@@H]1CCCN1S(=O)(=O)c1ccccc1F)Nc1ccc(OC(F)F)cc1 | -0.3
CCOC(=O)c1cc(-c2ccccc2)sc1NC(=O)COC | 55.4
COc1ccc(C(CC(=O)c2ccc(C)cc2)C(C#N)C#N)cc1OC (stereo not drawn) | 11.9
COc1ccc(Br)cc1/C=N/NC(=O)c1ccco1 | 18.3
COc1ccc(C)cc1NC(=O)CC(NC(C)=O)c1ccccc1 (stereo not drawn) | 7.5
O=c1c2ccccc2nc(/C=C/c2c[nH]c3ccccc23)n1-c1ccc([N+](=O)[O-])cc1 | 4.3
O=[N+]([O-])c1ccc(SCCc2ccncc2)cc1 | 12.4&15.2
O=C(c1cc2cc([N+](=O)[O-])ccc2s1)N1CCCCC1 | 10.5
Fc1ccc(C2=CC(c3ccco3)n3ncnc3N2)cc1 (stereo not drawn) | 11.6
CC(=O)Nc1ccc2c(c1)CCCC2 | 5.2
COC(=O)c1sc(S(=O)(=O)NCC(=O)O)c(C(=O)OC)c1C | 14.2
Cc1cccc(C(=O)Nc2sc3c(c2C#N)CCCCC3)c1 | 14.2

In the list so far, 3 have a cyano group:
SMILES | Biofilm kill mix
COc1ccc(N2CCN(c3ncccc3C#N)CC2)cc1 | 19.3
COc1ccc(C(CC(=O)c2ccc(C)cc2)C(C#N)C#N)cc1OC (stereo not drawn) | 11.9
Cc1cccc(C(=O)Nc2sc3c(c2C#N)CCCCC3)c1 | 14.2

(next part)
SMILES | Biofilm kill mix
CCN(CC)S(=O)(=O)c1cccc(C(=O)N[C@H](C(=O)NNC(=O)c2ccccc2)C(C)C)c1 | 8.6
FC(F)(F)c1ccc(-c2n[nH]c(=S)o2)nc1 | 22.6
CC(C)NC(=O)NC(=O)COC(=O)Cc1ccsc1 | -3.9
CC1CCCC/C1=N\NC(=S)Nc1cccnc1 (stereo not drawn) | 8.9
Cc1ccc(-c2cn3cccc(C)c3n2)cc1 | -8.6
CCc1c(C(C)S(=O)(=O)c2ccccc2)[nH]c(=O)n1CC (stereo not drawn) | 16.0
O=C1COc2ccc(C(=O)COC(=O)c3sc4ccccc4c3Cl)cc2N1 | 16.0
COc1ccc(/C=N\NC(=O)c2cccc([N+](=O)[O-])c2)cc1Cn1cc([N+](=O)[O-])cn1 | 1.4
Cc1cc(N2C(=O)C3CC=CCC3C2=O)no1 (stereo not drawn) | 6.4

Looked up one by one from above, 2 records:
SMILES | Biofilm kill mix
c1ccc(-c2nc3c(ccc4ccccc43)[nH]2)nc1 | 18.0
O=C(NNC1=NCCC1)C1CC1 | 14.2

Compound activity as filed in PubChem BioAssay.

Some of the compounds tested; count on the stated rates, not on these rows.
